Assay outcomes as filed in PubChem.
TRPML1 inh: blocks the human TRPML1 channel; AID 624415; 390,000 tested, 0.02% active; activity change, negative = inhibition, % (test concentration not listed); TRPML1-inducible cells, Ca2+ dye fluorescence, FDSS; hits give low values; inhibition of EC80 agonist-evoked calcium signal; in the data active means activity change below about -50%; inconclusive means about -30% to -50%; inactive means above about -30%;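 also: stimulus is agonist 54-4 at its EC80 concentration; % is scaled to controls: 0 for no effect and ±100 for the full control effect; compound concentration not given in the record; the text of the record puts the active cut at -80%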
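Calcium fluorescence in TRPML1-DL cells induced overnight with Tet: a 110 s read after compound pin addition, then a 110 s antagonist read after challenge with 54-4 at 4 uM final (EC80).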
Six1-Eya2 inh: Six1/Eya2 interaction inhibition; AlphaScreen GST-Six1/His-Eya2 binding, biochemical; hits give low values; control for the full effect not named in the record; activity change, % (no concentration beside the values); AID 651725; 360,000 tested, 0.56% active; in the data active = activity change below about -65%; inconclusive = about -30% to -65%; inactive = above about -30%; also: % is scaled to controls: 0 for no effect and ±100 for the full control effect; compound concentration not given in the record
Target sequence (O00167 whole entry, looked up): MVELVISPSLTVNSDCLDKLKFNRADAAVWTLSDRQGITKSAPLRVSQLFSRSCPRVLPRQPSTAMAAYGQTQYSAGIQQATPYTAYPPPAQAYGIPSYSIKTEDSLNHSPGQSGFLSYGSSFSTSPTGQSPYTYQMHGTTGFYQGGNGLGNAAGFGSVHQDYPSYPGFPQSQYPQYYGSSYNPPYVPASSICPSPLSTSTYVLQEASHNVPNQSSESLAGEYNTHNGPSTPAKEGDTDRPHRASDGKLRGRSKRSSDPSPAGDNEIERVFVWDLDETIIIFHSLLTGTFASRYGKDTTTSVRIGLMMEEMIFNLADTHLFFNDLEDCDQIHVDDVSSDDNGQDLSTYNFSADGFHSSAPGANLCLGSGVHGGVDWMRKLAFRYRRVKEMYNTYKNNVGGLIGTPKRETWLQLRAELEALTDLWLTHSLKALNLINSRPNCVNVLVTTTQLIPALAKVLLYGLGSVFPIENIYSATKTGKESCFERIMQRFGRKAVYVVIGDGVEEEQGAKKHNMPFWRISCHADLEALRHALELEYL
Target sequence (Q15475 whole entry, looked up): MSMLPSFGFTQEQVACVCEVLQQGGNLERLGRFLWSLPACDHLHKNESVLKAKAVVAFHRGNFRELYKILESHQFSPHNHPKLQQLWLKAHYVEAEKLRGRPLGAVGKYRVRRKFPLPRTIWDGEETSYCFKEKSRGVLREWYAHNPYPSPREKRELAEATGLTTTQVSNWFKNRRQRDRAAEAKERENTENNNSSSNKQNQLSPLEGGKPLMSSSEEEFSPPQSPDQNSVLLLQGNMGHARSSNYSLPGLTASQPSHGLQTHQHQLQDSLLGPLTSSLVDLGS
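AlphaScreen with GST-Six1 and His-Eya2 (5X mix: 250 nM and 500 nM), glutathione donor and nickel acceptor beads; buffer 50 mM Tris pH 8.0, 300 mM NaCl, 1 mM TCEP; 1 h at 37 C in the dark.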
TRPML1 agonist: activates the human TRPML1 channel; Q9GZU1; TRPML1-expressing cells, Ca2+ dye fluorescence, FDSS; host cell line not named in the record; reference of the full effect not given here; activation, % (test concentration not listed); 410,000 tested, 0.12% active; AID 624414; in the data active = activation above about 50%; inconclusive = about 30% to 50%; inactive = below about 30%; also: 0% is about no effect; the text of the record puts the active cut at 80%
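Cells: TRPML1-DL, 1X Tet inducer, ~16 h at 37 degrees C/5% CO2. Dye: ABD Ca8 no-wash + quencher, 45-90 min RT. Read: 10 s baseline, compound add, 110 s agonist phase; 54-4 EC80 (4uM final), 110 s antagonist phase.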
D2 agonist: activates the human D2 dopamine receptor. 360,000 tested, 0.084% active. DiscoveRx PathHunter D2 beta-arrestin, luminescence, 90 min; 100% = 57 uM dopamine signal. AID 624465. activation, % (no concentration beside the values). P14416; in the data active = activation above about 40%; inconclusive = about 15% to 40%; inactive = below about 15%; also: compound concentration not given in the record; the text of the record calls up to 30% inactive
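DiscoveRx PathHunter D2 beta-arrestin cells (2,100/well) attached overnight, then compound-stimulated 90 min at 37 C in HBSS/10 mM HEPES/0.1% Tween-20 buffer; beta-galactosidase complementation read by luminescence after 1 h at ambient temperature. Dopamine 57 uM final (EC100) as control.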
PINK1 expr mod: changes PINK1 expression. AID 624263. 410,000 tested, 0.2% active. Potency, µM (top dose mostly 76.6 µM), for the others: top-dose activation (PINK1 increase), usual class: activators. PINK1 immunofluorescence, high-content cytometry, 24 h; active = well fitted activation curve with a large enough effect; inconclusive = small, poorly fitted or top-dose-only effect; inactive = flat fitted curve, though single readings scatter; cell line not stated here;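 also: potency is read from the fitted curve at half-maximal effect; % of control where 0% means no effect; nearly all actives have a fitted effect of over 65% in size; a mitochondrial uncoupler was the plate control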
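Compound titrations (5 concentrations, 24 h) on a stable cell line; DMSO and CCCP controls. Endpoint: fixed-cell PINK1 immunofluorescence with mitochondrial, cell and nuclear markers, scanned by microplate cytometer.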
D2 PAM: potentiates the human D2 dopamine receptor allosterically; DiscoveRx D2 beta-arrestin cells, luminescence, 90 min; 100% = 57 uM dopamine signal; potentiation, % (concentration not given with the values); 360,000 tested, 0.23% active; AID 624464; active = potentiation of 50% or more; inconclusive = 30% to 50%; inactive = 30% or less;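 also: compound concentration not given in the record; tested on top of an EC20 dose of dopamine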
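D2 cells co-treated with compound plus 50 nM dopamine (EC20) for 90 min at 37 deg C to detect potentiation. Beta-arrestin recruitment was read as enzyme-fragment luminescence after 1 h at ambient temperature. Full response was set by 57 uM dopamine.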
* = called active by the depositor; ? = inconclusive; . = no result given; [ ] = remark or other dose.

smiles	TRPML1 inh	Six1-Eya2 inh	TRPML1 agonist	D2 agonist	PINK1 expr mod	D2 PAM
CC(C)(C)OC(=O)N1O[C@H]2C[C@@H]1[C@@H]1[C@@H]2N=NN1C12CC3CC(CC(C3)C1)C2	-2	2	-0.5	6.8	2.2%	.
COc1ccc(NC(=S)N2CCC(N(C)CC3CCCO3)CC2)cc1 (configuration not stated)	-8	7	-0.3	0.2	-1.0%	-6
COc1ccccc1C(=O)N(NC(=O)Oc1ccccc1)C(C)(C)C	-2	1	0.2	-3.6	4.6%	-1
CCCN(C(=O)c1nn(-c2ccc(C)cc2)c(=O)c2c1c1ccccc1n2C)c1ccccc1C	54	.	4.2	.	0.8%	.
COC(=O)c1cc(NS(=O)(=O)c2ccc(N3CCC(C)CC3)c([N+](=O)[O-])c2)cc(C(=O)OC)c1	-2	-18	2.4	-4.4	?	-13
CCOC(=O)c1c(NC(=O)CSc2cn(CCNC(=O)c3ccccc3F)c3ccccc23)sc2c1CCCC2	3	.	-0.8	.	4.0%	.
CC(=O)Oc1c(I)cc(I)cc1C(=O)Nc1ccc(Cl)cc1	38	1	1.1	1.8	?	-10
COc1ccccc1C(=O)Nc1ccc(CN2CCCCC2)cc1	1	-3	0.8	-0.9	-0.4%	-24
CCCC(c1nnnn1CC(=O)OCC)N(Cc1cc2c(C)cc(C)cc2[nH]c1=O)C1CCCC1 (configuration not stated)	-15	4	0.8	1.3	-0.5%	-2
CC(C)N1CC2(CC(c3ccccc3C(F)(F)F)=NO2)CN1C(=O)c1ccc(C(C)(C)C)cc1 (configuration not stated)	15	-2	0.0	3.6	19%	-1
CN(C)CCN(C(=O)c1ccc(C(=O)c2ccccc2)cc1)c1nc2cc3c(cc2s1)OCCO3	6	-11	-0.3	-0.9	0.7%	-12
CCCn1c(SCC(=O)N2CCCc3ccccc32)nnc1-c1ccccn1	-26	0	-0.5	-0.7	0.2%	13
CC(C)N1C(=O)C2C(C(=O)NC3CCCCC3)C3C=CC2(O3)C1C(=O)NC1CCCC1 (configuration not stated)	-11	-2	-1.1	-1.7	1.2%	-6
O=C(NCc1ccccn1)c1ccc(Cl)c(S(=O)(=O)N2CCCCC2)c1	-6	2	-1.1	-0.3	2.7%	-7
CCCCc1nc(N2CCOCC2)c(C#N)c2c1COC(C)(C)C2	6	12	0.5	-0.2	13%	-1
O=C(OC1CCS(=O)(=O)c2sccc21)c1ccccc1 (configuration not stated)	-8	12	1.0	2.7	3.6%	1
O=C(Cn1ncc2c(=O)oc3ccccc3c21)N1CCCc2ccccc21	2	2	0.9	-0.5	-0.4%	0
O=C(CSCc1cnn(-c2ccccc2)c1-n1cccc1)NCc1ccccc1Br	2	.	3.8	.	-0.1%	.
Cc1ccc(C(=O)N2CCN=C2SCc2ccc([N+](=O)[O-])cc2)cc1C	81	-18	1.3	6.1	1.2%	0
CCOC(=O)[C@@H]1[C@H]2COc3ccc(Br)cc3[C@H]2N2C(=O)N(c3cccc(Cl)c3)C(=O)[C@]12C	58	3	1.7	-2.3	0.5%	-9
COc1ccccc1-c1cc(C(F)(F)F)nc(S(=O)(=O)CCCC(=O)N2CCOCC2)n1	7	-4	-0.6	-4.6	-2.4%	-39
OC1CCCN(C(=S)Nc2ccc(SC(F)F)cc2)C1 (configuration not stated)	29	3	0.1	-2.5	-0.4%	0
Cn1c(=O)n(CCOc2ccc(Cl)cc2Cl)c2ccccc21	55	1	1.8	-0.6	3.3%	-8
C/C(=N\NC(=O)c1ccc(C)cc1)C1C(=O)c2ccccc2C1=O	1	-17	2.5	-5.8	?	-32
CCCC[C@@H]1C=C(C(=O)O)[C@H](c2ccc(Cl)c(Cl)c2)N1S(=O)(=O)c1ccc(C)cc1	-10	-25	-0.4	-0.3	0.8%	.

Looked up above:
CCOC(=O)[C@@H]1[C@H]2COc3ccc(Br)cc3[C@H]2N2C(=O)N(c3cccc(Cl)c3)C(=O)[C@]12C @ D2 PAM = -9
CN(C)CCN(C(=O)c1ccc(C(=O)c2ccccc2)cc1)c1nc2cc3c(cc2s1)OCCO3 @ TRPML1 agonist = -0.3

New compounds follow
smiles	TRPML1 inh	Six1-Eya2 inh	TRPML1 agonist	D2 agonist	PINK1 expr mod	D2 PAM
COc1ccc(C2C(C(=O)NCC3CCCO3)c3cc(OC)c(OC)cc3C(=O)N2C)cc1OC (configuration not stated)	-7	7	0.5	-2.5	0.8%	7
Cc1ccc(-c2n[nH]c3c2CCC3)cc1	-9	1	0.3	-0.9	-1.1%	-19
CC(C)CNc1c(N)n(CC(C)C)c(=O)[nH]c1=O	0	1	0.4	-0.3	2.9%	1
Cc1ccccc1S(=O)(=O)/N=C(/c1ccccc1)N1CCOCC1	15	6	0.3	-2.5	0.0%	-6
CCOC(=O)c1c(C)[nH]c(CCC(=O)NCCCN2CCN(c3cc(Cl)ccc3C)CC2)c1C	8	.	0.7	.	0.9%	.
Cn1cnnc1Sc1ccc(/C=C/C(=O)c2ccc(O)cc2)cc1[N+](=O)[O-]	-4	11	-0.9	1.8	-1.4%	0
COc1ccc(C(=O)COC(=O)CCC(=O)c2cccs2)cc1	-20	6	0.6	0.9	20%	1
CCCCCn1c(=O)[nH]c2cc(C(=O)O)ccc2c1=O	-9	2	0.1	-1.7	-0.1%	-5
Cc1cc(NC(=O)c2ccc(N3C(=O)CCC3=O)cc2)no1	-8	-1	-0.2	-0.8	-0.4%	-14
COc1ccc(-c2cc(-c3ccc(OC)cc3)nc(-c3ccc4c(c3)NC(=O)CO4)c2)cc1	6	-4	-0.3	-0.9	?	-11
COc1ccc2c(c1)c1ccccc1n2C	26	24	0.8	-3.2	-0.7%	-6
COCCn1c(SCC(=O)Nc2cccc(C)c2C)nc2c(oc3ccccc32)c1=O	13	.	-0.7	.	-0.1%	.
CCN(CC(=O)Nc1c(F)cccc1F)C(=O)c1ccc2c(c1)OCCO2	2	2	0.5	2.8	-1.4%	0
N#Cc1ccc(S(=O)(=O)N2CCC(C(=O)N3CCN(Cc4ccc5c(c4)OCO5)CC3)CC2)cc1	-4	-6	1.3	?	1.8%	3
Cc1cc([N+](=O)[O-])nn1CC(=O)NCc1cccs1	-30	13	0.4	-3.3	-0.1%	-6
Cc1[nH]c2ccccc2c1-c1ccc(Cl)nn1	-6	2	-0.3	-12	-0.7%	-13
O=C(NCCc1cccc(C(F)(F)F)c1)C1CCC(=O)N(C2CC2)C1 (configuration not stated)	-13	4	-0.2	-4.2	-0.4%	-8
CS(=O)(=O)N(CC(=O)N1CCCCC1)c1sc2c(c1C#N)CCCC2	-8	-6	0.4	-0.9	-1.1%	-11
COc1ccc(CC(=O)Nc2nnc(C(C)(C)C)s2)cc1OC	4	0	-0.2	-0.2	2.0%	-2
COc1ccccc1C(C)NCC(=O)Nc1c(F)cccc1F (configuration not stated)	-6	2	-1.5	-5.9	-1.1%	-19
O=C(N/C(=C/c1ccccc1)C(=O)N1CCCCCC1)c1ccccc1	-5	1	-0.3	-2.1	-1.4%	-1
Cc1ccc(F)c(NC(=O)c2ccc(Cn3cc(Cl)cn3)cc2)c1	-12	7	4.3	-1.3	0.3%	-4
S=C(NCc1ccco1)N1CCN(c2nc(-c3ccccc3)cs2)CC1	-27	-15	0.8	-2.0	5.9%	-10
c1ccc(Sc2ncnc3c2oc2ccccc23)nc1	16	5	0.3	-2.6	-2.0%	-6
Cc1ccc(C(=O)/C=C/C(=O)c2ccc(C)cc2)cc1	22	-2	0.8	-0.9	-1.2%	-4

Later entries:
smiles	TRPML1 inh	Six1-Eya2 inh	TRPML1 agonist	D2 agonist	PINK1 expr mod	D2 PAM
CSc1ccc(Cn2c(C)c(C(=O)NCc3ccco3)sc2=O)cc1	.	-12	-0.8	-0.5	0.4%	5
COC(=O)[C@]1(Cc2ccccc2)N[C@H](CN(C)S(=O)(=O)c2ccc(OC(F)(F)F)cc2)[C@@H]2C(=O)N(C)C(=O)[C@@H]21	-3	0	0.0	1.3	0.0%	.
CCN(CC)CCN(Cc1cc2cc3c(cc2[nH]c1=O)OCO3)C(=S)NCCCOC	-3	2	-0.9	-4.1	-1.6%	-40
C=CCNC(=S)NNC(=O)Cn1c(-c2ccccc2)cc(=O)n2ncnc12	-3	-5	1.1	-3.6	-0.5%	-8
O=C(Nc1cccc(F)c1)c1c(O)c2ccccc2[nH]c1=O	-13	1	0.2	-1.6	1.5%	-4
CC(=O)Nc1ccc2[nH]c(C)c(CC=C(Cl)Cl)c(=O)c2c1	-10	-1	-0.6	-1.9	5.0%	0
Cn1nccc1C(=O)Nc1sc2c(c1C#N)CCCC2	7	3	1.3	5.3	1.1%	-5
Cc1ccccc1OCC(=O)Nc1ccc2nc(SCC(=O)N3CCc4ccccc43)sc2c1	2	.	-0.2	.	0.1%	.
CC(C)=CCCC1(C)C=Cc2c(c(C)cc3c2[nH]c2cc(O)ccc23)O1 (configuration not stated)	.	-15	.	9.6	-1.3%	-21
O=C(O)c1ccc(CNCc2c(Cl)cccc2Cl)cc1	1	3	0.5	-3.6	5.6%[38.3 µM]	-2
O=C(CSc1nc2c([nH]c3ccccc32)c(=O)n1-c1cccc(Cl)c1)NCC1CCCO1 (configuration not stated)	79	.	4.7	.	-4.1%	.
O=C(CN1CCC(Cc2ccccc2)CC1)N1CCc2ccccc2C1	17	1	-0.3	-0.5	-0.9%	-15
CCOC(=O)c1ccc(NC(=O)CCCN2C(=O)NC3(CCCC3)C2=O)cc1	8	6	-1.0	5.9	1.6%	-2
Cc1nnc(SCc2ccccc2Cl)n1CC1CCCO1 (configuration not stated)	-2	7	-0.2	-3.3	0.5%	1
O=C(CNC(=O)c1cccs1)N/N=C/c1c(F)cccc1Cl	0	1	0.5	-0.8	0.1%	1
CCOc1ccc(/C=C2\SC(=S)N(CCC(=O)Nc3cccc(C(=O)O)c3)C2=O)cc1	-2	-4	0.1	6.3	1.8%	-3
CCOC(=O)N1CCN(C(=O)CSc2nnc(-c3cccc(Cl)c3)o2)CC1	22	11	0.8	-6.4	0.7%	-1
COc1cc(OC)c(NC(=O)c2nnn(Cc3ccc(C)cc3)c2N)cc1Cl	-14	.	4.0	.	5.8%	.
CC(C)CNC(=O)Nc1ccc(F)c(Cl)c1	-2	13	2.6	0.5	0.4%	-8
Cn1c(N)c(C(=O)CSc2nc3ccccc3n2-c2ccccc2)c(=O)n(C)c1=O	-12	5	0.1	-1.8	6.9%	-11
CN(C)c1ccc(/C=C/c2nnnn2-c2ccccc2)cc1	-6	-6	1.6	-6.3	3.6%	-6
COCCNC(=O)c1cnn2c1NC(c1ccco1)CC2C(F)(F)F (configuration not stated)	-11	2	4.1	0.1	-2.1%	-4
CC(C)N(C(=O)CSc1nc2ccc(Cl)cc2[nH]1)c1ccccc1	-5	.	0.5	.	-0.3%	.
Cc1cc(N2CCCCC2)nc2ccc(NC(=O)c3ccc(Br)o3)cc12	-13	-27	-0.1	-2.3	2.2%	-20
